FGF22 binding: shifts melting point of recombinant human FGF22; Q9HCT0; recombinant FGF22 thermal shift, SYPRO orange fluorescence; percent of sucrose octasulfate shift, DMSO zero; calls only at 9.99 µM; 1.5% of 340,000 active; AID 651658;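 active = melting point raised past a set limit in the mean and every replicate; three in four hits are not shown here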
Target sequence (Q9HCT0 whole entry, looked up): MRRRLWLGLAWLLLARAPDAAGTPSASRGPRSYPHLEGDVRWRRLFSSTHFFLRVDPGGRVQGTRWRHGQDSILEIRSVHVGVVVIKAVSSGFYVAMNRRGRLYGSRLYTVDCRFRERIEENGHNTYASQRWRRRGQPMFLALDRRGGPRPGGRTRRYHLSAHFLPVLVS
Ecoli rRNA inh: inhibits bacterial ribosomal RNA function over humanized ribosomes; GFP signal change (wild-type ribosome), % (test concentration not listed); E. coli WT GFP vs humanized-ribosome RFP mutants, fluorescence, 24 h; active compounds read low; DMSO median 0, no signal -100; 1.6% of 350,000 active;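 active = significant combined selectivity score with lowered wild-type GFP, culture density cut under 30%, mutant RFP and density less affected; inactive = any of these conditions unmet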; note: one replicate is shown; some compounds called inactive have numbers as strong as hits
AF4-AF9 inh: MLL-AF4/AF9 protein interaction inhibition; inhibition, % at 10 µM; 0.47% of 350,000 active; AlphaScreen, biotin-AF4 peptide binding to FLAG-AF9; P42568; AID 651704;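 active = every replicate reaching a set inhibition limit, whatever the replicate mean, cut at about 25% in these data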;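 note: 0% = plate neutral control median and 100% = total signal loss; the record names both 10 and 1 µM as test concentration; the first replicate is given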
Target sequence (P42568 whole entry, looked up): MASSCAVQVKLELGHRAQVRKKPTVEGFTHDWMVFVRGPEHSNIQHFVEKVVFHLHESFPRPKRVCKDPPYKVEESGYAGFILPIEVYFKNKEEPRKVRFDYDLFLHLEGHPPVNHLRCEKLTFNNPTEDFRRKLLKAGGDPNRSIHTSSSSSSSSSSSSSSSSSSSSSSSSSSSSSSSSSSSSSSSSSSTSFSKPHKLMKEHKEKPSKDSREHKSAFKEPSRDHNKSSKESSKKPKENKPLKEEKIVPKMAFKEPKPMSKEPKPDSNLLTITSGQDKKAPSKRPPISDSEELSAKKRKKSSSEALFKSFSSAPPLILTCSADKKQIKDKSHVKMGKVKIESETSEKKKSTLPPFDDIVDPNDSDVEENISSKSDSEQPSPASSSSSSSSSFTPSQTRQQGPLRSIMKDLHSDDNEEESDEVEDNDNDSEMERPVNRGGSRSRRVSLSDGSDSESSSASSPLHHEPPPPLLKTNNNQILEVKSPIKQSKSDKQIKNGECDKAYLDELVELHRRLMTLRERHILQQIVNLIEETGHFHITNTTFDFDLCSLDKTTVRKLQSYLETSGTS
Ecoli rRNA inh OD600: also measured in Ecoli rRNA inh; calls as there; OD600 change, %; measured here: OD600 growth;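 optical density of the mix in the first replicate; 0 = DMSO median and -100 = no signal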
Ecoli rRNA inh RFP: also measured in Ecoli rRNA inh; calls as there; RFP signal change, %; measured here: RFP humanized mutant strains;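 first replicate; 0 = DMSO median and -100 = no signal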
* hit, by the source's call; i = inactive; / = no result given; & = joins results of further samples. Not all compounds are listed; count on the stated rates, not on these rows.

entry	SMILES	FGF22 binding	Ecoli rRNA inh	Ecoli rRNA inh OD600	Ecoli rRNA inh RFP	AF4-AF9 inh
1	COc1cccc(C(=O)Nc2ccc3c(c2)OC[C@@H](C)N(CCc2ccccc2)C[C@H](C)[C@@H](OC)CN(C)C3=O)c1	i	-9.5	-9.6	0.3	-0.2
2	COc1ccc2c3c([nH]c2c1)[C@@H](CO)N(C(=O)c1ccncc1)CC31CCN(C(=O)C2CCC2)CC1	i	2.5	0.0	-0.8	-0.9
3	COc1ccc(S(=O)(=O)N2C[C@@H](O)COC[C@@H]3O[C@H](CC(=O)NCCCN4CCOCC4)CC[C@H]32)cc1	i	-1.0&7.7	-2.0&16.8	-5.8&2.6	-2.1&-7.7
4	C[C@H](NC(=O)C[C@@H]1CC[C@@H](NC(=O)C2CC2)[C@@H](CO)O1)c1ccccc1	i	-1.4	0.3	0.9	1.4
5	C[C@@H]1CCCCO[C@@H](CN(C)Cc2ccc(Cl)c(Cl)c2)[C@@H](C)CN([C@@H](C)CO)C(=O)c2cc(NC(=O)c3ccccc3)ccc2O1	i	5.0	9.8	2.9	-2.5
6	C[C@@H]1CN([C@H](C)CO)S(=O)(=O)c2ccc(C3=CCCCC3)cc2O[C@@H]1CN(C)C(=O)c1ccncc1	i	2.1	-2.0	-0.2	1.6
7	COCC(=O)Nc1ccc2c(c1)[C@@H]1C[C@H](CC(=O)NCC(F)(F)F)O[C@H](CO)[C@@H]1O2	i	4.6	8.3	-0.4	1.0
8	C[C@@H]1CCCCO[C@@H](CN(C)Cc2ccncc2)[C@H](C)CN([C@@H](C)CO)C(=O)c2cc(NC(=O)CCCCCC(=O)Nc3ccccc3N)ccc2O1	i	-0.9	6.2	-0.6	-9.6
9	O=C(C1CCCC1)N1CC2(C1)[C@@H](c1ccccc1)[C@@H](CO)N2C(=O)CC1CC1	i	0.7	4.6	-0.2	-0.7
10	C[C@H](CO)N1C[C@H](C)[C@H](CN(C)C(=O)Nc2ccc3c(c2)OCO3)Oc2c(NC(=O)c3ccncc3)cccc2C1=O	i	-2.9	10.4	0.7	-1.1
11	O=C(C[C@H]1CC[C@H]2[C@@H](COC[C@H](O)CN2Cc2ccc(Oc3ccccc3)cc2)O1)N1CCCCC1	i	-38.8	-75.0	-6.0	4.3
12	Cc1noc(C)c1NC(=O)Nc1cccc2c1O[C@H](CN(C)S(=O)(=O)c1cn(C)cn1)[C@H](C)CN([C@@H](C)CO)C2=O	i	-2.0	-0.5	-0.8	-1.1
13	O=C(C[C@H]1CC[C@@H]2[C@H](COC[C@@H](O)CN2S(=O)(=O)c2ccccc2)O1)NCc1ccc(-c2ccccc2)cc1	i	-1.3	-11.1	1.4	16.0
14	COc1cccc(-c2ccc([C@H]3[C@@H](CO)N4CCCCN(S(=O)(=O)c5cn(C)cn5)C[C@@H]34)cc2)c1	i	-2.5	-11.5	-1.7	-4.9
15	C[C@H]1CN([C@@H](C)CO)C(=O)Cc2cc(NC(=O)CCCCCC(=O)Nc3ccccc3N)ccc2O[C@@H]1CN(C)Cc1ccc(Oc2ccccc2)cc1	i	-3.3	-6.7	5.2	3.4
16	CN(C)CC#Cc1ccc([C@@H]2[C@@H](CO)N3CCCCN(C(=O)c4ccc5c(c4)OCO5)C[C@H]23)cc1	i	3.5	-1.2	5.0	-0.4
17	C[C@@H]1CN([C@H](C)CO)C(=O)Cc2cc(NC(=O)Nc3ccccc3)ccc2O[C@H]1CN(C)Cc1ccncc1	i	-3.5	-7.7	-0.9	-4.0
18	CC(=O)N1[C@@H]2c3ccc(-c4cccnc4)c(=O)n3C[C@@H]2[C@@H](CO)[C@@H]1C(=O)N1CCc2ccccc2C1	i	3.7	7.7	-0.3	-1.0
19	CC(C)C#Cc1cnc2c(c1)C(=O)N([C@@H](C)CO)C[C@@H](C)[C@@H](CN(C)C(=O)Nc1ccccc1F)O2	i	0.3	4.0	2.4	-2.3
20	O=C(Nc1ccc(F)cc1)N[C@@H]1C=C[C@H](CC(=O)N2CCCCC2)O[C@@H]1CO	i	0.1	0.1	-1.8	-2.1
21	COc1ccc(NC(=O)C2Cc3c(-c4ccncc4)ccnc3O2)cc1OC (stereo not given)	i	7.8	8.0	-3.4	-5.2
22	COc1ccc(CN(C)C[C@@H]2Oc3c(NS(=O)(=O)c4cccs4)cccc3C(=O)N([C@H](C)CO)C[C@@H]2C)cc1	i	3.5	-4.9	-0.7	2.3
23	CN1c2ccc(Br)cc2[C@H]2[C@H](CCN2S(=O)(=O)c2ccc(F)cc2)[C@@H]1CO	i	-56.1	-75.9	-12.6	1.8
24	C[C@@H]1CN([C@H](C)CO)C(=O)c2cc(/C=C/c3ccccc3)cnc2O[C@@H]1CN(C)C(=O)Cc1cccnc1	i	3.3	9.2	1.6	-3.6
25	C[C@H](CO)N1C[C@H](C)[C@@H](CN(C)C(=O)Nc2ccc(F)cc2)Oc2cc(-c3cccc(C(=O)N(C)C)c3)ccc2S1(=O)=O	i	0.9	5.1	-1.4	-1.4
26	CN1C(=O)c2cc(NC(=O)C3CCOCC3)ccc2OC[C@H]2O[C@@H](CC(=O)NCC3CCCCC3)CC[C@@H]21	i	0.5	-2.3	0.2	-3.1
27	CC(=O)Nc1cc(-c2ccc(F)cc2)cn2c(-c3ccc(F)cc3)cnc12	i	9.2	11.5	4.0	-11.8
28	Cc1c(C(=O)Nc2ccccc2N2CCN(C)CC2)oc2ccc(F)cc12	i	-1.9	-2.7	0.7	6.2
29	COc1ccccc1-c1cnc2c(c1)C(=O)N([C@@H](C)CO)C[C@@H](C)[C@H](CN(C)C(=O)CN(C)C)O2	i	4.9	6.8	-3.3	1.0
30	C/C=C/c1ccc2c(c1)O[C@H](CN(C)C(=O)CN(C)C)[C@@H](C)CN([C@@H](C)CO)S2(=O)=O	i	-3.2	-3.3	-1.8	0.3

As entered above.
In AF4-AF9 inh, CN(C)CC#Cc1ccc([C@@H]2[C@@H](CO)N3CCCCN(C(=O)c4ccc5c(c4)OCO5)C[C@H]23)cc1 is entered as -0.4
In Ecoli rRNA inh RFP, C[C@@H]1CN([C@H](C)CO)C(=O)c2cc(/C=C/c3ccccc3)cnc2O[C@@H]1CN(C)C(=O)Cc1cccnc1 is entered as 1.6

More results.
cpd	compound	FGF22 binding	Ecoli rRNA inh	Ecoli rRNA inh OD600	Ecoli rRNA inh RFP	AF4-AF9 inh
31	COc1cccc(-c2cn(CC[C@@H]3CC[C@@H](NS(=O)(=O)c4ccccc4Cl)[C@H](CO)O3)nn2)c1	i	-8.3	-3.5	2.1	-1.2
32	COc1ccc(NC(=O)N(C)C[C@@H]2OCCCC[C@@H](C)Oc3ccc(NC(=O)Nc4ccccc4)cc3C(=O)N([C@H](C)CO)C[C@H]2C)cc1	i	-0.7	-1.0	-0.9	-0.3
33	C[C@@H](NC(=O)[C@H]1[C@H](CO)[C@H]2Cn3c(cccc3=O)[C@H]2N1Cc1ccncc1)c1ccccc1	i	1.8	1.1	-0.5	-1.9
34	CC(C)(C)S(=O)N1Cc2cc(C(=O)NCCCN3CCOCC3)nc(-c3cccc(-c4cc5ccccc5o4)c3)c2[C@H]1CCO (stereo not given in full)	i	-4.5	0.4	6.8	1.4
35	COc1cccc(-c2ccc([C@H]3[C@@H](CO)N(C(=O)Cc4ccccc4)[C@H]3C#N)cc2)c1	i	-14.2	-35.5	21.8	1.9
36	OC[C@@H]1CN(Cc2ccc(F)cc2)C[C@H](n2cnc3c(N4CCCC4)ncnc32)O1	i	-0.9	-3.1	1.5	0.6
37	O=C(Nc1nccs1)[C@H]1[C@H](CO)[C@H]2Cn3c(ccc(-c4cncnc4)c3=O)[C@H]2N1CC1CCCC1	i	0.1	10.4	2.1	-12.1
38	CCCNC(=O)N1[C@H](C#N)[C@@H](c2ccc(C3=CCCCC3)cc2)[C@@H]1CO	i	-49.8	-74.1	-3.4	4.3
39	OC[C@@H]1CN(C2CCCC2)C[C@H](n2cnc3c(NC4CCC4)ncnc32)O1	i	9.1	14.9	4.3	1.0
40	O=C(CC1CC1)N1[C@H](CO)[C@H](c2ccccc2)C12CN(Cc1cc(F)ccc1F)C2	i	-5.9	-15.2	2.3	-1.6
41	Cn1c(SCC(=O)NC2CCCc3ccccc32)nnc1C1CC1 (stereo not given)	i	6.3	15.6	0.2	-0.3
42	CO[C@H]1CN(C)C(=O)c2ccc(NC(=O)C3CCC3)cc2OC[C@@H](C)N(C(=O)NC(C)C)C[C@@H]1C	i	-0.1	4.7	1.3	-1.7
43	CC(=O)Nc1ccc(NC(=O)C2Cc3c(-c4ccco4)ccnc3O2)cc1 (stereo not given)	i	0.8	1.3	-0.9	-2.7
44	Cc1ccc(S(=O)(=O)N(C)C[C@@H]2Oc3c(NC(=O)c4ccc(-c5nccs5)cc4)cccc3C(=O)N([C@@H](C)CO)C[C@H]2C)cc1	i	-14.2	-15.9	2.2	2.4
45	O=C(C[C@@H]1CC[C@@H]2[C@H](COC[C@H](O)CN2Cc2nccs2)O1)NCc1ccccc1Cl	i	i	/	/	-1.4
46	C[C@@H]1CN([C@H](C)CO)C(=O)c2cc(-c3ccc(C#N)cc3)cnc2O[C@@H]1CN(C)Cc1ccccn1	i	-5.4	-16.2	1.7	3.6
47	C[C@@H]1CN([C@H](C)CO)C(=O)c2cccc(NS(C)(=O)=O)c2O[C@@H]1CN(C)C(=O)Nc1ccc2c(c1)OCO2	i	0.8	6.9	-0.2	-1.2
48	O=C(C1CCOCC1)N1[C@@H](CO)[C@H](c2ccccc2)C12CN(CCC(F)(F)F)C2	i	-0.9	-3.6	-0.7	7.8
49	O=S(=O)(Oc1ccccc1)c1ccc(Cl)c(Cl)c1	i	-22.5	-31.8	-2.8	-2.9
50	O=C(CC1CCCC1)NCCS(=O)(=O)N1CCN(c2ccccc2)CC1	i	1.6	5.1	0.1	-2.9
51	C[C@@H]1CCCCO[C@H](CN(C)C(=O)Nc2ccc(F)cc2)[C@@H](C)CN([C@H](C)CO)C(=O)c2cc(NC(=O)NC3CCCCC3)ccc2O1	i	-1.8	4.6	-0.9	-2.6
52	CCS(=O)(=O)Nc1ccc2c(c1)C(=O)N(C)C[C@@H](OC)[C@@H](C)CN(CC1CCCCC1)[C@@H](C)CO2	i	1.6	1.0	-1.3	-0.1
53	Cc1noc(C)c1S(=O)(=O)Nc1ccc2c(c1)C(=O)N([C@H](C)CO)C[C@H](C)[C@@H](CN(C)Cc1ccc(Cl)c(Cl)c1)O2	i	-2.4	0.3	4.3	0.3
54	COC(=O)c1ccc(C(=O)N2CCCCCC2(C)C(=O)NC(C)C)cc1 (stereo not given)	i	-0.8	3.2	2.1	-0.9
55	CN(N=O)c1ccc(CC2CCc3ccccc32)cc1 (stereo not given)	i	-2.4	-38.0	-5.5	12.7
56	COCC#Cc1cnc2c(c1)C(=O)N([C@H](C)CO)C[C@@H](C)[C@H](CN(C)C(=O)NC1CCCC1)O2	i	0.5	15.1	-4.0	-4.2
57	CN1CCN(C(=O)[C@@H]2[C@@H](CO)[C@@H]3Cn4c(cccc4=O)[C@@H]3N2Cc2ccccc2F)CC1	i	3.7	12.4	-0.9	-0.4
58	O=C(C[C@@H]1C=C[C@H](NC(=O)Cc2ccccn2)[C@@H](CO)O1)NCCc1ccncc1	i	0.3	8.5	0.4	-0.9
59	COc1ccc2c(CN3CCCCCCC3)cc(=O)oc2c1	i	3.9	10.5	5.3	6.3
60	C[C@H](CO)N1C[C@H](C)[C@H](CN(C)S(=O)(=O)c2cccc(F)c2)Oc2ncc(C#CCN(C)C)cc2C1=O	i	5.2	7.3	0.9	-8.7
61	CC(C)(C)[C@@H]1COC(=O)[C@H](Cc2ccc(F)cc2)CC/C=C\C[C@@H](CC(=O)NCCO)C(=O)N1	i	9.2	-1.7	-1.2	-2.2
62	O=C1Nc2cccc3c2N(CCC3)C2=C1CCC2	i	9.5	14.8	7.3	5.3
63	COc1ccccc1CNc1nc(NCCOc2ccccc2Cl)c2sccc2n1	i	-63.0	-65.2	-20.4	2.1
64	COc1ccc(NC(=O)N(C)C[C@H]2Oc3ccc(N(C)C)cc3C(=O)N([C@H](C)CO)C[C@@H]2C)cc1	i	2.5	6.0	1.1	-0.9
65	COc1cccc(S(=O)(=O)N[C@H]2CC[C@H](CC(=O)NCc3ccc(Cl)cc3)O[C@@H]2CO)c1	i	-8.1	-14.6	1.6	1.9
66	Cc1ccccc1Nc1nc(N)nc(COC(=O)CCC(=O)c2ccc(F)cc2)n1	i	-6.0	-9.5	3.2	3.8

3 compounds out of the list, ordered by molecular weight, rising:
cpd	compound	FGF22 binding	Ecoli rRNA inh	Ecoli rRNA inh OD600	Ecoli rRNA inh RFP	AF4-AF9 inh
62	O=C1Nc2cccc3c2N(CCC3)C2=C1CCC2	i	9.5	14.8	7.3	5.3
58	O=C(C[C@@H]1C=C[C@H](NC(=O)Cc2ccccn2)[C@@H](CO)O1)NCCc1ccncc1	i	0.3	8.5	0.4	-0.9
61	CC(C)(C)[C@@H]1COC(=O)[C@H](Cc2ccc(F)cc2)CC/C=C\C[C@@H](CC(=O)NCCO)C(=O)N1	i	9.2	-1.7	-1.2	-2.2
